# KCNQ2 pot – potentiators of rat KCNQ2 potassium channel. O88943. actives 0.54% (n = 310,000). AID 2239. B-score at 10 µM. CHO-K1 KCNQ2, FluxOR thallium flux fluorescence; stronger effect = higher value;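 active means fluorescence ratio B-score at least 3 SD of library B-scores, with initial fluorescence B-score within 3 SD, cut at about 5.3 in these data; same plate scores as AID 2156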;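 further: B-score of peak minus minimum over baseline fluorescence ratio after K+ and Tl+ stimulus; positive B-score means potentiation of KCNQ2 with more thallium influx and brighter signal; only the inactives scoring about 0 or higher are listed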
# Target sequence (O88943 whole entry, looked up): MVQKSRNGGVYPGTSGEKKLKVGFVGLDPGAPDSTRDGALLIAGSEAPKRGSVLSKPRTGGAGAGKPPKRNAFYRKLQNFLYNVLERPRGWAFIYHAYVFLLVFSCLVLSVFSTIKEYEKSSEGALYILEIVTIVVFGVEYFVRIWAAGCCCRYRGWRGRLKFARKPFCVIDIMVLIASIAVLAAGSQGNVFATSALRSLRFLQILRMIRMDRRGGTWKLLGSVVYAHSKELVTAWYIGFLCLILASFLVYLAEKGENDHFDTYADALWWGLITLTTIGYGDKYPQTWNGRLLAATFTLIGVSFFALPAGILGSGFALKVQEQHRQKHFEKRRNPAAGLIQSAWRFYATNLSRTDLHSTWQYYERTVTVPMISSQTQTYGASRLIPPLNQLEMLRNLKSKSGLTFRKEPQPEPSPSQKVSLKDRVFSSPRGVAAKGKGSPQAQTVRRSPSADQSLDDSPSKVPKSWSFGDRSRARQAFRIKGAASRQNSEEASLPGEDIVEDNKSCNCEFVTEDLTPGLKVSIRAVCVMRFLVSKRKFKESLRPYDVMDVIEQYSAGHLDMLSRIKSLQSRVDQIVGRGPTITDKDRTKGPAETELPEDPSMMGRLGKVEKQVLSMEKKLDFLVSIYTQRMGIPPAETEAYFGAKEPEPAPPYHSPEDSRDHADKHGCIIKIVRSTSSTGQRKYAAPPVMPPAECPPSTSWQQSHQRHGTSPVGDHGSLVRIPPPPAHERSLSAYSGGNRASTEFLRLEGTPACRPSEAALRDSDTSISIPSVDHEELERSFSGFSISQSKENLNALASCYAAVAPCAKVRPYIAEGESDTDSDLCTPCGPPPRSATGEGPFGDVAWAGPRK
# KCNQ2 pot baseline – also measured in KCNQ2 pot; calls as there; B-score; compound at 10 µM; measured here: initial fluorescence intensity artifact check;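 brightness before thallium and not channel activity; 0 = typical well and far values either way flag optical interference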
# * = called active by the depositor.
SMILES | KCNQ2 pot baseline | KCNQ2 pot
CCOc1ccc(C(=O)NCC(=O)OCC(=O)Nc2ccccc2OCC)cc1 | 0.97 | 0.23
COc1ccc(CN(C(=O)c2cc(=O)c3cc(C)cc(C)c3o2)C2CCS(=O)(=O)C2)cc1 (stereo not given) | -0.07 | 0.92
O=C(Nc1c(Cl)cccc1Cl)c1cc(=O)n(Cc2ccccc2)c(=O)[nH]1 | 0.69 | 0.58
OCCCNCc1cccc2ccccc12 | -0.47 | 1.5
COc1ccccc1-c1csc(Cc2nnc3n2CCCCC3)n1 | -2.9 | 2.6
CN(Cc1ccncc1)C1CC(=O)N(c2ccc(Cl)cc2)C1=O (stereo not given) | -0.39 | 1.1
CS(=O)(=O)c1ccc(Cl)c(NC(=O)c2cccc(N3C(=O)CCC3=O)c2)c1 | 0.08 | 0.13
O=C(O)c1cc(Sc2ccc(Br)cc2)nc2ccccc12 | 1 | 0.59
Cc1ccc(C(=O)c2c3ccccc3[n+]([O-])n2[C@@H](C)C(N)=O)cc1 | 0.13 | 0.72
C=CCn1c2ccccc2c2nnc(SCC(N)=O)nc21 | 1.6 | 0.31
C(=N\n1cnnc1)/c1ccc2c(c1)OCCO2 | -0.53 | 1.3
Cc1cccc(-c2nc(CS(=O)CC(=O)NCC3CCCO3)c(C)o2)c1 (stereo not given) | 2.4 | 0.24

# Carrying on.
SMILES | KCNQ2 pot baseline | KCNQ2 pot
Cc1cccc(NS(=O)(=O)c2ccc3c(c2)OCCO3)c1 | -0.01 | 0.02
O=C(O)c1cc(N=Cc2c(O)c3ccccc3oc2=O)ccc1O | 0 | 0.43
COc1ccc(CN(CC(=O)NCC2CCCO2)C(=O)CCC(=O)Nc2cc(C)on2)cc1 (stereo not given) | 0.25 | 0.02
CC(C)CC1=NN(C(=O)c2ccco2)C(O)(C(F)(F)F)C1 (stereo not given) | 0.32 | 0.13
CC(C)c1nc2sc3c(NCc4ccccc4)ncnc3c2c2c1COC(C)(C)C2 | 1.3 | 0.21
O=C(NCc1ccco1)c1ccc(N2CCCCC2)c([N+](=O)[O-])c1 | 0.04 | 1.1
Cc1ccc(NS(=O)(=O)c2cccc([N+](=O)[O-])c2)nc1 | -1.1 | 0.78
O=C(O)/C=C\C(=O)Nc1cccc(NC(=O)c2ccccc2)c1 | 0.04 | 0.49
COc1ccc(-c2ccc3nnc(SCC(=O)NCC4CCCO4)n3n2)cc1 (stereo not given) | -0.68 | 0.11
Cc1ccc(CNC(=O)c2cccnc2Cl)cc1 | -0.71 | 1.3
CC(C)CC(=O)N1CCN(c2ccc([N+](=O)[O-])cc2Cl)CC1 | -2.5 | 0.07
O=C1CC(/C=C/c2ccccc2)(C(=O)NC2CCCC2)N1c1ccc(S(=O)(=O)N2CCCC2)cc1 (stereo not given) | 0.16 | 0.75

# More results follow:
SMILES | KCNQ2 pot baseline | KCNQ2 pot
CCCC(=O)NCCc1nc2ccccc2n1CC(=O)c1ccccc1 | -0.91 | 1.4
Cc1cccc(C)c1OCCN1CCCC1 | 0.13 | 1.7
OCC1(Cc2ccccc2)CCN(C2CCN(c3ccc(F)c(F)c3)CC2)CC1 | -0.81 | 2.9
CC(=O)N1CCOc2ccc(S(=O)(=O)N3CCC(C(=O)NCc4ccc(C)cc4)CC3)cc21 | 0.35 | 0.57
NNC(=O)c1[nH]c2ccc(Cl)cc2c1-c1ccccc1 | 0.28 | 0.79
CCCCc1ccc(S(=O)(=O)Nc2cc(C)on2)cc1 | -0.94 | 0.69
O=C(c1ccc2c(c1)OCCCO2)N1CCCCC1 | 0.82 | 1.2
O=C(Nc1cccc(S(=O)(=O)N2CCCCCC2)c1)C1CCN(C(=O)c2ccc(Cl)cc2)CC1 | 0.04 | 0.97
Cc1ccc(Sc2cc(C(=O)NCCCN(C)C)c3ccccc3n2)cc1 | -0.19 | 0.19
COc1ccc(N2C(=O)N3[C@H](c4cccc(C)c4)[C@@H]4C(=O)N(Cc5ccccc5)C(=O)[C@@H]4[C@]3(Cc3ccccc3)C2=O)cc1 | 0.01 | 1.3
COCCCNC(=O)c1cc2c(=O)n3cc(C)ccc3nc2nc1NCC1CCCO1 (stereo not given) | -0.09 | 1.3
Cc1nnsc1S(=O)c1ccc(F)cc1 (stereo not given) | -0.57 | 0.41

# (next part)
SMILES | KCNQ2 pot baseline | KCNQ2 pot
CC(C)C(C(=O)NCC1CCCO1)N(CC1CCCO1)C(=O)CNS(=O)(=O)c1ccccc1 (stereo not given) | -3.2 | 0.03
CCCNC(=O)C(=O)N/N=C/c1cccs1 | 1.8 | 0.01
COc1ccc(CNC(=O)C2CCN(c3cc(C(=O)Nc4cccc(OC)c4)ccn3)CC2)cc1 | -0.51 | 0.39
CCN(CC)S(=O)(=O)c1csc(C(=O)OCC(=O)c2ccccc2)c1 | -0.89 | 0.74
Cc1ccc(S(=O)(=O)CCC(=O)NCc2ccco2)cc1 | 0.5 | 0.31
Cc1ccc(CC2CC(=O)N(c3cc(C)on3)C2=O)cc1 (stereo not given) | -0.66 | 0.79
COC(=O)c1cc(NC(=O)C2CC2)cc(C(=O)OC)c1 | 0.74 | 0.69
Cn1c(-c2sc3cc(C(F)(F)F)cnc3c2-c2ccccc2)n[nH]c1=S | 1.2 | 0.1
CCOc1cc(/C=N\NC(=O)OC(C)(C)C)ccc1OC(=O)c1ccco1 | -0.4 | 0.52
CC(=O)n1cc(/C=N/NC(=O)c2cccc(O)c2)c2ccccc21 | -0.01 | 1.2
O=C(/C=C/Nc1ccc(Br)cc1F)c1ccccc1 | -1.4 | 0.37
CNc1nc2c(c(=O)[nH]c(=O)n2C)n1CCCc1ccccc1 | -3.7 | 1.9

# The listing continues:
SMILES | KCNQ2 pot baseline | KCNQ2 pot
S=C1NCCC12C(=S)Nc1ccccc12 (stereo not given) | -0.72 | 0.03
O=C(c1cccc(S(=O)(=O)Nc2ccc(Br)cc2)c1)N1CCC1 | -1.8 | 1.4
COc1ccc(CCNC(=O)CS(=O)(=O)c2cn(CC(=O)N3CCCC3)c3ccccc23)cc1OC | 0.84 | 0.57
COc1ccc(NC(=O)COC(=O)CCNS(=O)(=O)c2ccc(Cl)cc2)cc1 | -0.33 | 1.1
Cc1ccc2[nH]c3c(c2c1)CCN1C(=O)OC(C)(C)C31C (stereo not given) | -0.04 | 0.06
COCCCNC(=O)c1ccccc1N(Cc1ccccc1)S(=O)(=O)c1ccccc1 | 0.54 | 1.7
N#CC1=C(N)SC(N)=C(C#N)C1c1ccoc1 | 2.2 | 0.09
COc1ccc(NC(=O)c2ccc(C#CC(C)(C)O)cc2)cc1 | -1.2 | 0.89
O=c1oc2ccc(Cl)cc2cc1-c1nnc(Nc2cccc(C(F)(F)F)c2)s1 | 1.2 | 1.6
CCc1ccc(N(CC(=O)NC2CCCCC2)C(=O)CCC(=O)Nc2ccccn2)cc1 | -0.05 | 0.15
Cn1c(C(=O)O)c(CC(=O)NCC2COc3ccccc3O2)c2ccccc21 (stereo not given) | 0.11 | 1.4
CC(C)CNC(C)C(=O)Nc1ccc(S(N)(=O)=O)cc1 (stereo not given) | -0.16 | 0.79

# Further entries.
SMILES | KCNQ2 pot baseline | KCNQ2 pot
COc1ccc(-c2csc(NC(=O)c3ccccc3S(C)(=O)=O)n2)cc1 | 2.7 | 1.2
C/C(=N\OCC(=O)NCC(F)(F)F)c1cc2ccccc2o1 | -0.57 | 1.2
O=C(O)C(Cc1c[nH]c2ccccc12)N1C(=O)C2C3c4ccccc4C(c4ccccc43)[C@@H]2C1=O (stereo not given in full) | -2.4 | 0.21
CC(C)CCNC(=O)CCCc1ccccc1 | 0.08 | 0.68
CCOc1ccc(C2CC(=O)N(Nc3ccc([N+](=O)[O-])cc3[N+](=O)[O-])C2=O)cc1 (stereo not given) | 0.45 | 0.86
COC(=O)C1=C(C)NC(=S)NC1c1sccc1C (stereo not given) | 1.7 | 1.7
Cc1ccnc(Nc2nc(-c3ccc(O)c(O)c3)cs2)c1 | 0.36 | 0.65
CCOc1ccc(N(Cc2cc3ccc(C)cc3[nH]c2=O)C(=O)COC)cc1 | -0.56 | 1.5
O=C(Nc1ccccc1Cl)c1cnccn1 | -0.04 | 0.2
CCCCc1nc(NCCO)c(C#N)c2c1CCCC2 | -1.8 | 2
CCOC(=O)C1C(c2ccccc2)N(C)OC1(O)C(F)(F)F (stereo not given) | -0.17 | 1.1
CCN(c1ccc(OC)cc1)S(=O)(=O)c1nnc(NC(=O)C(C)C)s1 | -1 | 0.36

# Further records follow.
SMILES | KCNQ2 pot baseline | KCNQ2 pot
O=[N+]([O-])c1ccc(NC(=S)N2CCN(c3ccccn3)CC2)cc1 | -0.41 | 0.04
COc1ccc(S(=O)(=O)N2Cc3ccccc3CC2C(=O)N2CCOCC2)cc1 (stereo not given) | -1.6 | 1.3
CC(OC(=O)CCc1nc2ccccc2c(=O)[nH]1)C(=O)c1ccc(C(C)(C)C)cc1 (stereo not given) | -1 | 0.96
O=C(CCc1ccncc1)NC1CCCc2c1cnn2-c1cc(F)cc(F)c1 (stereo not given) | 0.55 | 1.2
Cc1sc2nc(SC(C)C)nc(N)c2c1C | 0.24 | 1.2
CC1CC(C)CN(S(=O)(=O)c2cc3c4c(c2)CCN4C(=O)CC3)C1 (stereo not given) | 0.48 | 0.03
CCc1ccc[n+](-c2[nH]c(=O)sc2/C=N/N=C(\[O-])c2ccncc2)c1 | -0.49 | 0.95
N#Cc1c(SCC(N)=O)nsc1SCc1ccc(Cl)cc1 | 0 | 0.11
Cn1nc(C(=O)NC2=NCCS2)ccc1=O | 1.2 | 1.1
COc1ccc(CNC(=O)/C=C/c2ccco2)cc1OC | 0.41 | 0.36
COC(CN(C)C(=O)C1CCC(CNS(=O)(=O)c2ccc(C)cc2)CC1)OC (stereo not given) | 0.08 | 0.84
COc1ccc(OC(=O)c2ccc(Cl)cc2)c(C(C)=O)c1 | -1.3 | 0.44

# (next part)
SMILES | KCNQ2 pot baseline | KCNQ2 pot
O=C(/C=C/c1ccccc1)NNc1ccc(Cl)cc1 | -2.5 | 0.12
O=C(Nc1ccc(F)cc1)c1ccc(S(=O)(=O)N2CCOCC2)o1 | -0.06 | 1.2
CCn1c(SCC(=O)NC2CCCC2)nc2c1c(=O)n(C)c(=O)n2C | 0.2 | 0.49
CCCCC(=O)Nc1cccc(C(=O)Nc2ccccc2C(=O)O)c1 | 0.66 | 0.15
Clc1ccc(Br)cc1-c1nc(-c2ccncc2)no1 | -0.47 | 0.18
CC1(C)CC(=O)c2cnc(NC(=O)c3ccco3)nc2C1 | 0.95 | 0.51
CCC(=O)Nc1ccc(-c2cc(-c3ccccc3)nc(-c3ccc(NC(=O)CC)cc3)n2)cc1 | -1.8 | 0.35
CCCS(=O)(=O)c1c(S(=O)(=O)CCC)c2c(N)cccn2c1C(=O)c1ccc(OC)cc1 | 0.38 | 1
CCOC(=O)CNC(=O)Nc1nnc(-c2ccc(OCC)cc2)o1 | -0.97 | 1.5
Cc1ccc(S(=O)(=O)N2CCC(C(=O)OCC(=O)N3CCCCC3C)CC2)cc1C (stereo not given) | -0.85 | 1.1
Cc1ccc(Nc2c3c(nc4ncnn24)CC(C)CC3)cc1 (stereo not given) | -3.1 | 2.9
CC(C)CC1(C(=O)NCc2ccccn2)C=CCN1C(=O)c1ccccc1 (stereo not given) | 0.91 | 0.02

# Other entries follow:
SMILES | KCNQ2 pot baseline | KCNQ2 pot
CCOC(=O)C1CCCN(C(=O)c2cc3c(=O)n4ccccc4nc3s2)C1 (stereo not given) | 2.2 | 1.1
Cc1c(NS(=O)(=O)c2ccc(Br)cc2)c(=O)n(-c2ccccc2)n1C | -1.4 | 0.82
Fc1ccc(Oc2ncccn2)c(F)c1 | -0.15 | 0.79
O=[N+]([O-])c1ccc(S(=O)(=O)NCC(c2cccnc2)N2CCc3ccccc32)cc1 (stereo not given) | -1.8 | 1.6
COc1cccc(C2CC(c3cccs3)=NN2C(=O)CSC2=NN3CCCC(=O)N=C3S2)c1OC (stereo not given) | -1.8 | 2.1
O=C(Nc1ccc(CN2CCCCC2)cc1)c1cccc(F)c1 | 2.1 | 0.12
Cc1ccccc1-n1c(C)cc(/C=N/NC(=O)c2ccc(CN3CCOCC3)cc2)c1C | -3.9 | 2
CCN(CC)CCN(C(=O)c1ccc(S(=O)(=O)N2CCOCC2)cc1)c1nc2cc3c(cc2s1)OCCO3 | -1.2 | 2
COc1ccc(NC(=S)NCCN2CCC(C)CC2)cc1 | -0.64 | 1.7
Cc1ccc(Oc2nnc(-c3cccs3)c3ccccc23)cc1C | 1.7 | 0.35
CCN1CCN(S(=O)(=O)c2ccc(-c3cc(C)no3)s2)CC1 | -0.13 | 0.1
N#Cc1c(N)n(-c2ccccc2)c(=O)c2cc([N+](=O)[O-])ccc12 | -0.09 | 0.4

# (continued)
SMILES | KCNQ2 pot baseline | KCNQ2 pot
O=C(CCC(=O)OCc1ccc([N+](=O)[O-])cc1Cl)Nc1ccccc1 | 1.4 | 0.26
Cn1c(=O)[nH]c(=O)c2c1nc(Br)n2CC(O)COc1ccc(Cl)cc1 (stereo not given) | -0.75 | 0.03
O=C(NNC(=O)c1sc2cccc(Cl)c2c1Cl)Nc1ccccc1 | 0.23 | 0.04
Cc1ccc(S(=O)(=O)N2CCCCC2)cc1NC(=O)C1CC(=O)N(c2ccc3c(c2)OCCO3)C1 (stereo not given) | -2.1 | 1.3
CC(=O)NC(=S)Nc1ccc(S(=O)(=O)Nc2nc(C)cc(C)n2)cc1 | -0.23 | 0.09
O=C(NNC1=NS(=O)(=O)c2ccccc21)C1CC(=O)N(c2ccccc2)C1 (stereo not given) | -0.48 | 0.77
Cn1nnc(C(O)CNCc2cccs2)n1 (stereo not given) | -0.5 | 0.1
CN1CCC(=O)N([C@H](CO)c2ccccc2)CC1 | -1.7 | 0.42

# An excerpt. The share of hits here may be higher or lower than overall.
